Cruzain Triton – blocks cruzain activity in presence of Triton detergent; AID 1478; actives 0.43% (n = 200,000); purified cruzain, Z-FR-AMC fluorescence, 0.01% Triton; P25779; Potency, µM, for inactives: max response, negative = inhibition, actives largely listed as inhibitors;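 note: plate controls were neutral wells for no effect and buffer without enzyme for full effect; nearly all actives have a fitted effect of over 40% in size; top concentration of the series not given in the record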
Target sequence (P25779 123-467 limits assumed): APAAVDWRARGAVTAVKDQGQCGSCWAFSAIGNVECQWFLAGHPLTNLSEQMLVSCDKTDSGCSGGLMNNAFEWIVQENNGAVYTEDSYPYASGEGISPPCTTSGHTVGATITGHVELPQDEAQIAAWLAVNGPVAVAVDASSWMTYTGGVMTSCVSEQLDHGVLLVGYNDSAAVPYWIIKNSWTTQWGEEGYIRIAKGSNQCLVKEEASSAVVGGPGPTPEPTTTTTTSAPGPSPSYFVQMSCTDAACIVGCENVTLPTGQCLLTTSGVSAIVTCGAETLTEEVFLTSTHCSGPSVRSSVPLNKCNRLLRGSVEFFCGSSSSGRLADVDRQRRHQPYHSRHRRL
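Cruzain (1.5 nM) preincubated 15 min at RT with compound in 100 mM sodium acetate pH 5.5, 5 mM DTT, 0.01% Triton X-100. Reaction started with 2 uM Z-FR-AMC; AMC fluorescence (ex 360/em 450 nm) change over 60 s gave rate.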
NS1 function inh – inhibitors of influenza NS1 protein function; S. cerevisiae slowed by influenza A NS1, growth recovery by OD600; actives 0.4% (n = 270,000); Potency, µM (top dose mostly 46.1 µM), for the others: at the highest dose activity, positive = more growth; active means well fitted rising curve with a large enough effect; inconclusive means small, poorly fitted or top-dose-only effect; inactive means no such curve, though single readings can be large or run the other way; note: nearly all actives have a fitted effect of over 50% in size
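Recovery from NS1-induced slow growth read by OD600 in budding yeast switched to galactose assay medium (pH 6.0, -URA) at 1:100 dilution. Compound 23 nl per well; the matching strain lacking NS1 serves as control.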
Lassa entry inh – blocks Lassa virus binding to or entry into cells; actives 1.2% (n = 300,000); Lassa virus pseudotype entry inhibition, cell reporter; control for the full effect not named in the record; Potency, µM (highest dose often 37.9 µM), without a hit: top-dose activity change, negative = inhibition, usual class: inhibitors; active means well fitted inhibition curve with a large enough effect; inconclusive means small, poorly fitted or top-dose-only effect, or effect the other way; inactive means flat fitted curve, though single readings scatter; tested in HEK293 cells; note: % is set by controls: 0 for no effect and ±100 for the full control effect; nearly all actives have a fitted effect of over 50% in size; luciferase read-out
SARS PLP yeast – blocks SARS-CoV papain-like protease in a yeast assay | S. cerevisiae expressing SARS-CoV PLpro, growth rescue; control for the full effect not named in the record | AID 485353 | actives 0.19% (n = 330,000) | Potency, µM (top dose mostly 32.9 µM), without a hit: top-dose activity, positive = growth rescue; active means well fitted rising curve with a large enough effect; inconclusive means small, poorly fitted or top-dose-only effect; inactive means no such curve, though single readings can be large or run the other way; note: 0% is about no effect; nearly all actives have a fitted effect of over 55% in size; growth read by luminescence after 48 h
Cruzain inh noDet – inhibitors of Trypanosoma cruzi cruzain without detergent | Potency, µM, without a hit: max response, negative = inhibition, most hits filed as inhibitors | purified cruzain, Z-FR-AMC fluorescence, no detergent | P25779 | actives 2.3% (n = 200,000);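 note: plate controls were enzyme without inhibitor for no effect and buffer without enzyme for full effect; nearly all actives have a fitted effect of over 40% in size; top concentration of the series not given in the record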
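Purified cruzain at 1.5 nM, pre-incubated 15 min with compound at room temperature in 100 mM sodium acetate pH 5.5, 5 mM DTT, 0.00005% Triton X-100. Reaction started with 2 uM Z-FR-AMC; AMC fluorescence increase over 60 s gives rate.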
RE007 growth inh – less growth of the S. pombe RE007 Vpr strain; S. pombe RE007 Vpr strain, BacTiter-Glo ATP luminescence, 24 h; control for the full effect not named in the record; Potency, µM (series often up to 92.2 µM), inactives show at the top dose activity change, negative = less growth; actives 0.21% (n = 360,000); AID 651644; active = well fitted falling curve with a large enough effect; inconclusive = small, poorly fitted or top-dose-only effect; inactive = no such curve, though single readings can be large or run the other way;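 note: % is set by controls: 0 for no effect and ±100 for the full control effect; nearly all actives have a fitted effect of over 50% in size; the assay follows cell death caused by Vpr and the record does not say whether a fall means rescue or toxicity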
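Fission yeast strain RE007, carrying one chromosomally integrated HIV-1 vpr copy, was seeded at OD 0.01 in PMG+AL medium with 23 nL pinned compound. After 24 h at 30 °C and 99% humidity, viability was read by BacTiter-Glo luminescence.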
2A StopGo – FMDV 2A StopGo reporter, luciferase signal; AID 1159524; actives 1.2% (n = 410,000); Potency, µM (titrated, usually from 57.9 µM), for the others: at the highest dose signal change, negative = less light; human cells with a luciferase reporter of 2A StopGo recoding; control for the full effect not named in the record; active = well fitted falling curve with a large enough effect; inconclusive = small, poorly fitted or top-dose-only effect; inactive = no such curve, though single readings can be large or run the other way; tested in HEK293T cells; note: % is set by controls: 0 for no effect and ±100 for the full control effect; nearly all actives have a fitted effect of over 45% in size; luciferase light after 4 h
MARV entry inh – inhibitors of Marburg virus binding or cell entry; Marburg virus pseudotyped entry inhibition, cell reporter; control for the full effect not named in the record; about a third of the inactives were read at about 46 µM; actives 1.8% (n = 300,000); Potency, µM (highest dose often 37.8 µM), without a hit: top-dose activity change, negative = inhibition, usual class: inhibitors; AID 540276; active = well fitted inhibition curve with a large enough effect; inconclusive = small, poorly fitted or top-dose-only effect, or effect the other way; inactive = flat fitted curve, though single readings scatter; tested in HEK293 cells; about a fifth of its hits are not listed in these tables; note: % is set by controls: 0 for no effect and ±100 for the full control effect; luciferase read-out
Numbers without * were called inactive; ? = inconclusive; nt = not tested or not shown; & = joins results of further samples; [ ] = remark or other dose. Unless noted, calls come from the whole dose curve; as a rule, active = well fitted curve in the direction sought with a large enough effect; inconclusive = small, poorly fitted or top-dose-only effect, or another doubt; inactive = no such curve, though single readings can be large; an effect the other way counts as inactive or inconclusive. Potency is the fitted concentration of half-maximal effect.

nr | smiles | Cruzain Triton | NS1 function inh | Lassa entry inh | SARS PLP yeast | Cruzain inh noDet | RE007 growth inh | 2A StopGo | MARV entry inh
1 | CC(C)OCCCNC(=O)CN1C(=O)/C(=C/c2ccccc2)Sc2ccccc21 | -6.4% | -17% | -12% | -5% | ? | nt | -17% | -1%
2 | CC(=O)N1CCc2cc(S(=O)(=O)NC(C(=O)NCc3ccccc3)C(C)C)ccc21 (configuration not stated) | -2.6% | -1% | -6% | 2% | -2% | -3% | 3% | -10%
3 | CCc1cc(/C(Cc2csc(C)n2)=N/O)c(O)cc1O | -1.5% | 4% | ? | 8% | -1% | 25% | ? | ?
4 | Cc1cc(C)c(OCC(=O)Nc2nnc(-c3ccco3)o2)c(C)c1 | nt | nt | 20% | 0% | nt | 18% | 5% | 6%[46.1 µM]
5 | O=c1c2ccccc2nc2n1C(CSc1ccccc1)CS2 (configuration not stated) | nt | 0% | 8%[46.1 µM] | 3% | nt | -8% | 29% | 23%[46.1 µM]
6 | Cc1ccc(C(=O)OC(C)C(=O)NCc2ccc3c(c2)OCO3)cc1S(=O)(=O)N1CCOCC1 (configuration not stated) | nt | 13% | -9% | -7% | nt | 0% | -19% | -8%
7 | C=CCn1c(SCC(=O)c2ccc(CNC(C)=O)o2)nc2scc(C3CC3)c2c1=O | -5.7% | 14% | 12% | 3% | ? | -8% | -17% | -28%&-28%
8 | Cc1ccc(-c2nc3cnccn3c2Nc2ccc3c(c2)OCCO3)o1 | -1.8% | -11% | 0% | -2% | -9% | -21% | 1% | 0%
9 | CSCC[C@H](NC(=O)N1C[C@H]2C[C@@H](C1)c1cccc(=O)n1C2)C(=O)Nc1ccc(NC(C)=O)cc1 | nt | 8% | nt | -4% | nt | 9% | -11% | nt
10 | O=C(COC(=O)c1cccc(NC(=O)c2ccc(Br)cc2)c1)c1ccc(Cl)cc1 | -2.1% | nt | 5%[46.1 µM] | nt | 9% | nt | ? | 30%[46.1 µM]
11 | O=C(NCc1ccc2c(c1)OCO2)C(c1ccco1)N(C(=O)c1csnn1)c1ccccc1 (configuration not stated) | 5.0% | -12% | -16% | 8% | 1% | 2% | 2% | -5%&-5%
12 | CCOc1ccc(S(=O)(=O)N(CC(=O)NCCSc2ccccc2)c2ccccc2)cc1 | -1.4% | nt | -11%[46.1 µM] | nt | 5% | nt | -11% | 3%[46.1 µM]
13 | COCCN(CCOC)c1ncnc2c1c(-c1ccccc1)cn2-c1ccc(C)c(Cl)c1 | -0.8% | nt | -3%[46.1 µM] | nt | ? | nt | -28% | nt
14 | COc1ccccc1Cn1c(=O)[nH]c2cccnc21 | 7.2% | -6% | 1% | 2% | -5% | 13% | -23% | -5%[46.1 µM]
15 | Cc1ccccc1OCCNC(=O)CNC(=O)c1ccccc1O | 0.9% | -6% | 5% | 1% | 10% | 3% | 47%[activator] | -6%
16 | O=C(CCNC(=O)N1CCn2c1nc1ccccc12)NCc1ccc(Cl)cc1 | nt | -5% | nt | 0% | nt | 9% | -11% | nt
17 | COc1ccccc1N1CCN(S(=O)(=O)c2ccc3c(c2)CCCN3C(C)=O)CC1 | -1.2% | nt | -8%[46.1 µM] | nt | ? | nt | -8% | nt
18 | CCCCNc1nnc(Cc2ccc(Cl)cc2)c(=O)[nH]1 | nt | -2% | nt | -2% | nt | -4% | -12% | nt
19 | CCN(CC)S(=O)(=O)c1ccc(C(=O)NC2=NCCS2)cc1 | nt | 0% | 21%[46.1 µM] | -3% | nt | -14% | 36%[activator] | 1%[46.1 µM]
20 | CN1CCC(=NNC(=O)C(=O)NC(C)(C)C)CC1 | 2.7% | 0% | 4% | 12% | 3% | -6% | nt | 0%
21 | O=C(Nc1ccccc1N1CCOCC1)C1(c2ccc(Cl)cc2)CCC1 | nt | 6% | -22%[46.1 µM] | -5% | nt | 9% | ? | ?
22 | Cc1ccccc1N1CCN(S(=O)(=O)N(C)C)CC1 | nt | nt | 9% | 1% | nt | 2% | -13% | 4%
23 | CCOC(=O)CCCNC(=O)CN1C(=O)NC(c2ccccc2)(c2ccccc2)C1=O | nt | -25% | ? | 0% | nt | 4% | -2% | 0%[46.1 µM]
24 | CC(C)(C)OC(=O)N1CCN(C(=O)Cn2cc(CCO)nn2)CC1 | nt | 2% | nt | 2% | nt | 6% | -2% | nt
25 | C/C=C\C(=O)Nc1cccc(C2=NOC3(C2)C[C@@H](C(N)=O)N(C(=O)c2ccccc2)C3)c1 (some centres not stated) | nt | -2% | nt | 5% | nt | 1% | -3% | nt
26 | CCOc1cccc(-c2nnc(SCC(=O)Nc3cccc(OC)c3)n2N)c1 | 1.9% | -19% | -31% | -2% | 15% | -6% | -15% | ?
27 | O=Cc1c(NCc2ccc(F)cc2)c2ccccc2[nH]c1=O | nt | -17% | 1%[46.1 µM] | 3% | nt | -3% | -10% | 8%[46.1 µM]
28 | CCN(CC)S(=O)(=O)c1cccc(NC(=O)CC2CCCC2)c1 | nt | -3% | ? | 0% | nt | ? | 4% | 2%[46.1 µM]
29 | Cc1ccc(N2C(=O)CN(Cc3ccccc3)C2=S)cc1C | nt | -1% | ? | -1% | nt | 17% | -4% | -3%
30 | COc1cc(OC)c(NC(=O)CCc2c(C)nc3c4c(C)cc(C)nc4nn3c2C)cc1Cl | -2.5% | nt | -1%[46.1 µM] | nt | 6% | nt | 5% | -4%[46.1 µM]
31 | O=C(COC(=O)Cc1ccc(Br)cc1)NCc1ccc(F)cc1 | nt | 0% | 14% | 0% | nt | -12% | -19% | -6%[46.1 µM]
